# HPGD inh = blocks human HPGD enzyme activity | P15428 | purified HPGD, NADH fluorescence kinetic, PGE2 substrate | Potency, µM, inactives show at the highest dose activity change, negative = inhibition, hits mostly inhibitors | 150,000 tested, 4.3% active | AID 894; active = well fitted inhibition curve with a large enough effect (not every such curve was filed as active); inconclusive = small, poorly fitted or top-dose-only effect, or another doubt; inactive = no such curve, though single readings can be large or run the other way;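 note: top concentration of the series not given in the record; plate controls included wells without enzyme; inactives centre near -10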
# Target sequence (P15428 whole entry, looked up): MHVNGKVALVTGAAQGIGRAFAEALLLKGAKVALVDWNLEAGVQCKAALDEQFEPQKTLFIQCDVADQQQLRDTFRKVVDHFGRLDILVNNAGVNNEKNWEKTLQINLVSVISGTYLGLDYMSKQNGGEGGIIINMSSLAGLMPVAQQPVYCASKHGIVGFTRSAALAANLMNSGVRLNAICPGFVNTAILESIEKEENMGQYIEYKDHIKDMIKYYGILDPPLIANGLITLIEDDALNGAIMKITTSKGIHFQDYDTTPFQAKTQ
#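 20 nM HPGD preincubated 15 min at room temperature with compound in 50 mM Tris-HCl pH 8, 0.01% Tween 20. Started with 1 mM NAD+ and 30 uM prostaglandin E2; NADH fluorescence (360/450 nm) read 5 times over 30-s intervals, last minus first.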
# An asterisk follows results filed as active; ? = inconclusive; & = joins results of further samples. % is set by controls: 0 for no effect and ±100 for the full control effect; potency is the fitted concentration of half-maximal effect. Only part of the results is shown, so the mix of outcomes need not match the whole.
SMILES,HPGD inh
O=C(NN1C(=O)c2ccccc2C1=O)C1C2CCCCC21 (stereo unspecified),-9%
COCCNC(=O)CSc1nc2ccccc2c2nc(C)nn12,?
Cc1ccc(-n2cc3c(-c4cccc(Br)c4)nnc(C)c3n2)cc1,-7%
Cc1c(C(=O)NCc2cccnc2)sc2nc(-c3ccc(F)cc3)cn12,-14%
O=C(Nc1ccccc1)c1sc2cc(C(F)(F)F)cnc2c1-c1cccs1,7%
CSCCC(NC(=O)c1ccccc1)C(=O)N/N=C(\C)c1ccccc1 (stereo unspecified),2%
Fc1ccc2c(c1)C(c1ccncc1)=NNC(c1ccc(Br)cc1)=N2,-6%
CCC1=C(OC(=O)N(CC)CC)N2C(=O)OC(=NCC3CC3)[C@]2(Cc2ccccc2)[C@H]2C1=CC[C@H]1C(=O)N(CC(=O)OC)C(=O)[C@H]12,-6%
CCOc1ccc(N2C(=O)CC(NCc3ccc(F)cc3)C2=O)cc1 (stereo unspecified),-7%
Cc1cccc(NC(=S)NC2CC3CCCC(C2)N3CC(C)C)c1C (stereo unspecified),-4%
Cc1oc2ccc(OCc3ccccc3F)cc2c1C(=O)O,-5%
O=C(NNC(=S)NC1CCCCC1)c1cccs1,-26%
COc1ccc2nc(Nc3nc(-c4cc5ccccc5oc4=O)cs3)sc2c1,-11%
CCc1nc(N=Nc2c(O)[nH]c3ccccc23)c2c3c(sc2n1)CCC3,-6%
O=C(Nc1ccccc1Cl)N1CCN(c2ccccn2)CC1,?
NS(=O)(=O)c1ccc(-c2ccc(C=NC3CCS(=O)(=O)C3)o2)cc1 (stereo unspecified),-16%
O=C(CCC(NC(=O)OCc1ccccc1)C(=O)OCC(=O)N1CCCCC1)OCC(=O)N1CCCCC1 (stereo unspecified),-5%
CCOC(=O)C1=C(C)NC(=S)N(C(C)=O)C1c1ccc(Cl)cc1 (stereo unspecified),-9%
CC1=CC(C)(C(Cl)Cl)C(C)=CC1=O (stereo unspecified),-19%
Cc1ccc2nc(SC(C(=O)Nc3ccc(F)cc3)c3ccccc3)[nH]c2c1 (stereo unspecified),-6%

# Reprinted at random: 5 entries already listed, in no set order.
SMILES,HPGD inh
CC1=CC(C)(C(Cl)Cl)C(C)=CC1=O (stereo unspecified),-19%
CSCCC(NC(=O)c1ccccc1)C(=O)N/N=C(\C)c1ccccc1 (stereo unspecified),2%
Cc1ccc2nc(SC(C(=O)Nc3ccc(F)cc3)c3ccccc3)[nH]c2c1 (stereo unspecified),-6%
Cc1c(C(=O)NCc2cccnc2)sc2nc(-c3ccc(F)cc3)cn12,-14%
Cc1ccc(-n2cc3c(-c4cccc(Br)c4)nnc(C)c3n2)cc1,-7%

# Further entries follow:
SMILES,HPGD inh
Cc1ccc(CNC(=O)CN(C2CCCCC2)S(C)(=O)=O)cc1,-1%
CN1c2ccccc2C(C)(C)C12C=Nc1c(cc(N3CCOCC3)c3ccccc13)O2 (stereo unspecified),-11%
CCCCCCCc1cc2c(cn1)C(=O)C(C)(OC(C)=O)C(O)=C2Cl (stereo unspecified),-11%
CC(Sc1nc2ccccc2o1)C(=O)O (stereo unspecified),-10%
CC1CCN(C(=O)N2c3ccccc3Sc3ccccc32)CC1,-7%
CC(NC(=O)C(C)N1C(=O)C2C3CC(C(Br)C3Br)C2C1=O)c1ccccc1 (stereo unspecified),-11%
CCOCC(=O)Nc1ccccc1C(=O)OCC,-8%
COC(=O)C1=C(C)Nc2nnnn2C1c1ccco1 (stereo unspecified),?
COc1ccc(C(=O)NC(=O)CSc2nnc(-c3ccco3)n2-c2ccccc2)cc1,-10%
NC(=O)c1ccc(NC(=O)C2CCCO2)cc1 (stereo unspecified),?
COC(=O)c1cc(NC(=O)C2COc3ccccc3O2)ccc1Cl (stereo unspecified),-11%
CCOC(=O)N1CCC(NC(=O)CC(NS(=O)(=O)c2ccc(Cl)cc2)c2ccco2)CC1 (stereo unspecified),0%
O=C(O)c1ccccc1Nc1cccc(OCc2ccc3ccccc3n2)c1,-24%&-27%
CC(=O)c1ccc(NC(=O)C(C)n2nc(-c3ccccc3)c3cc(Cl)ccc32)cc1 (stereo unspecified),-11%
O=C(CN(CCc1ccccc1)C(=O)CNS(=O)(=O)c1ccccc1)NCc1ccco1,-8%
O=C(NC1(C(=O)NC2CCCCC2)CCCCC1)c1ccccn1,2%
O=C(CSc1nnc(CNc2ccc(F)cc2)n1Cc1ccccc1)N1CCOCC1,-6%
Cc1ccc(N2CC(C(=O)Nc3nnc(C(C)C)s3)CC2=O)cc1 (stereo unspecified),1%
CCOc1ccc(N2C(=O)c3ccc(C(=O)OCc4c(C)noc4C)cc3C2=O)cc1,-15%
O=C(Nc1ccc(N2CCOCC2)c2nonc12)C1CCCC1,-19%

# Brought forward from above: 4 entries, then new ones.
SMILES,HPGD inh
O=C(CSc1nnc(CNc2ccc(F)cc2)n1Cc1ccccc1)N1CCOCC1,-6%
Cc1ccc(N2CC(C(=O)Nc3nnc(C(C)C)s3)CC2=O)cc1 (stereo unspecified),1%
CCOc1ccc(N2C(=O)c3ccc(C(=O)OCc4c(C)noc4C)cc3C2=O)cc1,-15%
O=C(Nc1ccc(N2CCOCC2)c2nonc12)C1CCCC1,-19%
CCN(CC)C(=O)c1c(C)nc2ccccn12,-18%
CCN(CC)S(=O)(=O)c1ccc(N2CCOCC2)c(NC(=O)c2ccc3ccccc3c2)c1,?
COc1ccc(N(C(=O)C2CCCCC2)C2C=CS(=O)(=O)C2)c(OC)c1 (stereo unspecified),-3%
Oc1ccc(/C=N\Nc2cc(N3CCOCC3)nc(N3CCOCC3)n2)c(O)c1,-9%
Cc1ccccc1N1C(N)=NC(N)=NC1(C)C,-2%
COc1cc2c3c(c1)/C(=C1/SC(NC(C)=O)=NC1=O)C(=O)N3C(C)(C)C=C2C,-30%
CCn1c(O)c(C2=NCCCC2)c2ccccc21,-11%
COc1cc(/C=N/NC(=S)Nc2cccc(S(=O)(=O)N(C)C)c2)ccc1O,-17%
COc1cc2c(cc1NC(=O)CSc1nnnn1-c1ccccc1)oc1ccccc12,?
Cc1ccc(-n2ncc3c(=O)n(CC(=O)NCc4ccco4)cnc32)cc1C,?
Cc1ccc(C(=O)c2c(NC(=O)CSc3nnc(N)s3)sc3c2CCCC3)cc1,?
COc1ccc(OC)c(-c2cc(C(=O)Nc3cccc(Cl)c3)no2)c1,?
COc1ccc(/C(N)=N/OC(=O)c2cccc([N+](=O)[O-])c2)cc1,-6%
CCCCN(CCCC)CC(O)CN1C(=O)NC(C)(C)C1=O (stereo unspecified),-7%
CC1=C(C(=O)OCc2ccccc2)C(c2ccc(Cl)cc2Cl)NC(=O)N1CCCCCC(=O)O (stereo unspecified),-9%
Cc1cc(NC(=O)C2C3C=CC(C3)C2C(=O)O)no1 (stereo unspecified),-14%
COc1ccccc1NC(=O)N(Cc1cc2cc(OC)c(OC)cc2[nH]c1=O)CC1CCCO1 (stereo unspecified),?
Clc1ccccc1-c1nnc2sc(-c3ccncc3)nn12,-17%
N#Cc1ccc(-c2ccc(OCC(O)Cn3nnc4ccccc43)cc2)cc1 (stereo unspecified),-6%
CCCC(C(=O)NC1CCCC1)N(C(=O)Cn1nnc(-c2ccc(C)o2)n1)c1ccccc1OC (stereo unspecified),-14%
CCCc1nc2c(nnn2Cc2ccccc2)c(=O)[nH]1,-26%
Cc1ccc(N2C(=O)N(CC(=O)NCc3ccc(Cl)cc3)C(=O)C2C)cc1 (stereo unspecified),-7%
CCc1ccc2c(c1)[C@H]1OCC[C@H]1[C@@H](c1cccs1)N2,-20%
COc1cccc(C(=O)N=c2sc3c(C)ccc(OC)c3n2C)c1,?
COc1ccc(C2CC(=O)Oc3cc(OC)ccc32)cc1 (stereo unspecified),-13%
O=C(NC(NC(=S)Nc1ccccc1C(=O)O)C(Cl)(Cl)Cl)c1cccc([N+](=O)[O-])c1 (stereo unspecified),-24%
COc1cccc(C(=O)Nc2ccc(NC(=O)C(C)(C)C)cn2)c1,-5%
CCC(CC)NC(=O)CCc1nc2ccccc2c(=O)[nH]1,-5%
CCOC(=O)c1[nH]c(C)c(C)c1C,-9%
CC(C)(C)c1ccc(C(=O)NNC(=O)C2CCCCC2)cc1,-11%
O=C(NCCOC12CC3CC(CC(C3)C1)C2)c1cccc(Br)c1,-9%
COc1cccc(C(=O)Nc2ccccc2N2CCOCC2)c1,-8%
CCN(CCCNC(=O)Cn1ncc2c(=O)oc3ccccc3c21)c1cccc(C)c1,-19%
[O-]C1=N/[N+](=C/c2ccc(Cl)c(Cl)c2)CC1,-19%
O=C1N/C(=C/c2ccc(N3CCOCC3)cc2)C(=O)N1Cc1ccc(F)cc1,-6%
NC(=O)c1cc[n+](CC2=C(C(=O)O)N3C(=O)[C@@H](NC(=O)[C@H](c4ccccc4)S(=O)(=O)[O-])[C@@H]3SC2)cc1,-6%
NCCCCC(N)C(=O)NC(Cc1ccc(O)cc1)C(=O)NC(CCCCN)C(=O)O (stereo unspecified),-19%
Cc1cccc(CCN(C(=O)Cc2cccs2)C(C(=O)NC2CCCCC2)c2cccnc2)c1 (stereo unspecified),-8%
Clc1ccc(-c2csc(N3CCC(c4ccccc4)C3)n2)cc1 (stereo unspecified),1%
Cc1cc(Cl)c(S(N)(=O)=O)cc1OCC(N)=O,-2%

# Some of the entries above in another layout:
COc1cc2c(cc1NC(=O)CSc1nnnn1-c1ccccc1)oc1ccccc12
- HPGD inh = ?

Cc1ccc(-n2ncc3c(=O)n(CC(=O)NCc4ccco4)cnc32)cc1C
- HPGD inh = ?

Cc1ccc(C(=O)c2c(NC(=O)CSc3nnc(N)s3)sc3c2CCCC3)cc1
- HPGD inh = ?

COc1ccc(OC)c(-c2cc(C(=O)Nc3cccc(Cl)c3)no2)c1
- HPGD inh = ?

# Next part
SMILES,HPGD inh
O=C(NC1CCCC1)C(NS(=O)(=O)c1cccc2nsnc12)c1ccccc1 (stereo unspecified),3%
COc1cc(C(=O)OCC(=O)Nc2c(F)c(F)c(F)c(F)c2F)cc(OC)c1OC,-12%
CC(=O)c1c(C)[nH]c(C(=O)NCc2cccs2)c1C,-10%
COc1ccc(N2Cc3cccc(C(=O)N4CCOCC4)c3C2=O)cc1,-3%
Cc1ccc(S(=O)(=O)N(C)C2(C)CCS(=O)(=O)C2)cc1 (stereo unspecified),0%
Cc1c(Br)c(C(F)(F)F)nn1CC(=O)NCCN1CCOCC1,-11%
c1ccc(Cn2nnnc2CN2CCOCC2)cc1,-1%
O=C(c1ccccc1)N1CCN(C(=O)C23CC4CC(CC(C4)C2)C3)CC1,-9%
Cc1onc(-c2c(F)cccc2Cl)c1C(=O)NCCc1ccc(S(N)(=O)=O)cc1,-23%
CCc1nnc(NC(=O)Cn2nc(-c3ccc(OC)c(OC)c3)ccc2=O)s1,-9%
Cc1ccn2c(NC(=O)c3ccco3)c(-c3ccccc3)nc2c1,2%
Cc1ccc(-n2nc3c(c2NC(=O)CCC2CCCCC2)CS(=O)C3)cc1 (stereo unspecified),0%
CC(C)n1c(=S)[nH]c2c1c(=O)[nH]c(=O)n2C,8.9µM*
Cc1cc(C)cc(N(CC(=O)N2CCn3c2nc2ccccc23)S(=O)(=O)c2c(C)noc2C)c1,-11%
COc1cccc(NC(=O)CC(C)=O)c1,-8%
Cc1c(C(=O)NC(C)CN2CCCCC2)oc2ccccc12 (stereo unspecified),-16%
COC(=O)c1c(C)[nH]c(C)c1-c1ccccc1,1%
CCOc1cc(NC(=O)C2CC2)c(OCC)cc1NC(=O)c1ccccn1,-5%
COc1ccc(NC(=O)C(Sc2nnc3ccccn23)c2ccccc2)cc1Cl (stereo unspecified),-17%
CCOC(=O)c1[nH]c2cc(OC)c(OC)cc2c1NC(=O)c1nonc1C,-4%
COC(=O)CC1C(C)(C)C(OC(C)=O)C2[C@H](OC(C)=O)[C@]34O[C@]2(O)[C@]1(C)C3CC[C@]1(C)C4=CC(=O)OC1c1ccoc1 (stereo partly specified),-17%
CCOC(=O)/C(=C\c1cn(C)c2ccccc12)[N+](=O)[O-],3.5µM*
CCOc1ccc2[nH]c(C)cc(=O)c2c1,-30%
Cc1cc(=O)oc2cc(OCC(=O)Nc3nnc(C(C)C)s3)ccc12,?
CC(c1ccccc1)C1CC(=O)N(C2CCCCC2)C1=O (stereo unspecified),-7%
COc1ccc(-c2nnc(SCC(=O)c3[nH]c(C)c(C(C)=O)c3C)o2)cc1,-14%
Cn1c(=O)c2c(nc(SC3C(=O)CC(C)(C)CC3=O)n2C)n(C)c1=O,?
CCCCOCCCNC(=O)N[C@H](C(=O)OC)C(C)C,-10%
COc1ccc(OC)c(NC(=O)C2CCC(CNc3c(N4CCC(C)CC4)c(=O)c3=O)CC2)c1 (stereo unspecified),25µM*
O=C(Nc1cccc(F)c1)N1CCC2(CC1)CCN(C(=O)c1cnccn1)CC2,-2%
Cc1noc(C)c1S(=O)(=O)N1CCC(C(=O)NCCC2=CCCCC2)CC1,-3%
CC(=O)/C(=C\c1ccccc1)CC(=O)O,-9%
CCCSc1nc2c(c(=O)[nH]c(=O)n2C)n1C,-13%
COc1cccc(C(=O)n2c(SC)nc3cc4c(cc32)OCCO4)c1,-19%
CCc1nnc(SCC(=O)N2CCCc3ccccc32)nc1CC,-26%
FC(F)(F)c1nc(-c2cccnc2)ncc1-c1nnnn1-c1ccccc1,-11%

# Screening results: PubChem BioAssay, National Center for Advancing Translational Sciences (NCATS)
